D2 agonist: human D2 receptor agonism in beta-arrestin assay | P14416 | DiscoveRx PathHunter D2 beta-arrestin, luminescence, 90 min; 100% = 57 uM dopamine signal | activation, % (concentration not given with the values) | actives 0.084% (n = 360,000); in the data active = activation above about 40%; inconclusive = about 15% to 40%; inactive = below about 15%; further: compound concentration not given in the record; the text of the record calls up to 30% inactive
Target sequence (P14416 whole entry, looked up): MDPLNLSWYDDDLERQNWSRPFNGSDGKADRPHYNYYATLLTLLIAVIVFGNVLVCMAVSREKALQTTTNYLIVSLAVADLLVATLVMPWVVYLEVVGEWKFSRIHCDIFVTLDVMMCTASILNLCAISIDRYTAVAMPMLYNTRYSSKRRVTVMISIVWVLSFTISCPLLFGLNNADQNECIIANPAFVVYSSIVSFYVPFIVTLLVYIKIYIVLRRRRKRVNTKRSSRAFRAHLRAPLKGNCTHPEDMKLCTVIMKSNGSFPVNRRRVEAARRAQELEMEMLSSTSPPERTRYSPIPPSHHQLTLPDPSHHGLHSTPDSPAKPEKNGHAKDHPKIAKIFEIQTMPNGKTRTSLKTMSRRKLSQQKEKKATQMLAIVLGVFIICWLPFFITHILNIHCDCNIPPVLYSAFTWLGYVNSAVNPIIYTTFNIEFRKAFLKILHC
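DiscoveRx PathHunter D2 beta-arrestin cells (2,100/well) attached overnight, then compound-stimulated 90 min at 37 C in HBSS/10 mM HEPES/0.1% Tween-20 buffer; beta-galactosidase complementation read by luminescence after 1 h at ambient temperature. Dopamine 57 uM final (EC100) as control.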
CtBP-E1A inh: CtBP/E1A binding inhibition. activity change, % (concentration not given with the values). actives 0.49% (n = 340,000). AlphaScreen GST-E1A/His-CtBP binding, 1536-well; stronger effect = lower value; control for the full effect not named in the record. AID 651724; in the data active means activity change below about -65%; inconclusive means about -30% to -65%; inactive means above about -30%; further: on the % scale 0 is the no-effect control and ±100 the full control effect
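Steps: dispense buffer (Tris pH 8.0, NaCl 300 mM, TCEP 1 mM, BSA, Tween 20); add 5X protein mix (GST-E1A, His-CtBP, 125 nM each); pin 23 nL compound; 2 h at 37 °C, dark; add 5X beads (50 ug/mL); 1 h; read.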
Six1-Eya2 inh: inhibitors of human Six1/Eya2 interaction; Q15475+O00167; AlphaScreen GST-Six1/His-Eya2 binding, biochemical; stronger effect = lower value; control for the full effect not named in the record; activity change, % (test concentration not listed); actives 0.56% (n = 360,000); in the data active = activity change below about -65%; inconclusive = about -30% to -65%; inactive = above about -30%; further: on the % scale 0 is the no-effect control and ±100 the full control effect; compound concentration not given in the record
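AlphaScreen with GST-Six1 and His-Eya2 (5X mix: 250 nM and 500 nM), glutathione donor and nickel acceptor beads; buffer 50 mM Tris pH 8.0, 300 mM NaCl, 1 mM TCEP; 1 h at 37 C in the dark.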
PINK1 modulator: modulators of PINK1 expression | actives 0.2% (n = 410,000) | Potency, µM (titrated, usually from 76.6 µM), inactives show at the highest dose activation (PINK1 increase), usual class: activators | AID 624263 | PINK1 immunofluorescence, high-content cytometry, 24 h; active = well fitted activation curve with a large enough effect; inconclusive = small, poorly fitted or top-dose-only effect; inactive = flat fitted curve, though single readings scatter; cell line not stated here;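 further: potency means the concentration at half of the fitted maximal effect; % of control where 0% means no effect; nearly all actives have a fitted effect of over 65% in size; a mitochondrial uncoupler was the plate control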
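PINK1 protein, normally rapidly degraded, was detected by immunofluorescence after 24 hour compound treatment of a stable cell line. Titration data (5 concentrations) came from laser-scanning cytometry, with CCCP-treated wells as controls.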
TRPML1 ag: human mucolipin-1 channel agonism; activation, % (no concentration beside the values); Q9GZU1; TRPML1-expressing cells, Ca2+ dye fluorescence, FDSS; host cell line not named in the record; reference of the full effect not given here; actives 0.12% (n = 410,000); in the data active = activation above about 50%; inconclusive = about 30% to 50%; inactive = below about 30%; further: 0% is about no effect; the text of the record puts the active cut at 80%
Target sequence (Q9GZU1 whole entry, looked up): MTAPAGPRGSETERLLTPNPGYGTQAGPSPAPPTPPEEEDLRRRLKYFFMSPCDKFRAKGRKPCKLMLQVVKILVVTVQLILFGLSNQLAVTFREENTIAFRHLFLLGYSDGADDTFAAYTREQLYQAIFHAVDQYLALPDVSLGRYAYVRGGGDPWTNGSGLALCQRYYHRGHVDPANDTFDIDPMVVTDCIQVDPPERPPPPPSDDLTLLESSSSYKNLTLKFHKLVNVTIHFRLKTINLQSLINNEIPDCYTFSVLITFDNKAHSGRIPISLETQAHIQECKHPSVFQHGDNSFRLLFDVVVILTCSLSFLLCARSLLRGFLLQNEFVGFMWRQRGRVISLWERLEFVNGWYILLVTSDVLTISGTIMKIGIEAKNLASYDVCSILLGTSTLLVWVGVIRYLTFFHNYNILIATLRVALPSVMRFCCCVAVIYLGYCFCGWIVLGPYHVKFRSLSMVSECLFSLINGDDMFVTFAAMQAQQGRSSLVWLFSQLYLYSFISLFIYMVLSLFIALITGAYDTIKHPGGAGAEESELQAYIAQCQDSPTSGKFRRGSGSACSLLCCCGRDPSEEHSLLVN
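Agonist activity was taken from a 110 s kinetic Ca2+ dye read on the FDSS after pinning compounds onto TRPML1-DL cells. The cells were seeded at 1,500/well with Tet inducer, incubated about 16 h, then dye-loaded at room temperature.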
D2 potentiator: human D2 receptor positive allosteric modulation; actives 0.23% (n = 360,000); potentiation, % (no concentration beside the values); DiscoveRx D2 beta-arrestin cells, luminescence, 90 min; 100% = 57 uM dopamine signal; AID 624464; active = potentiation of 50% or more; inconclusive = 30% to 50%; inactive = 30% or less;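 further: compound concentration not given in the record; tested on top of an EC20 dose of dopamine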
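PathHunter D2 cells, attached overnight at 37 deg C, received compound in DMSO plus dopamine at EC20 (50 nM final) for 90 min at 37 deg C. Beta-arrestin recruitment was read as luminescence after 1 h with detection reagent at ambient temperature.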
Active calls of the source: *; ? = inconclusive; / = not tested or not shown; [ ] = another dose, or the depositor's remark. Rows were taken by chance (roughly 1.3% active in at least one column).

SMILES	D2 agonist	CtBP-E1A inh	Six1-Eya2 inh	PINK1 modulator	TRPML1 ag	D2 potentiator
FC(F)(F)c1nnc2sc(-c3ccccn3)nn12	-2.2	3.8	2.4	-1.1%	1.7	12.1
CCOc1ccccc1C(=O)OCC(=O)Nc1cccc(S(=O)(=O)NC2=NCCCCC2)c1	-0.9	/	-3.8	-0.3%	-0.9	8.6
NC(=O)c1nsc(C(=O)N(CC(=O)NCc2ccc3c(c2)OCO3)C2CCCC2)c1N	-0.8	-1.6	-6.2	-2.1%	-0.9	2.8
Cc1cc(Cl)cc(C)c1OCC(=O)O	-0.8	-1.7	3.3	0.6%	-0.4	27.8
CC(=O)Nc1cccc(C(=O)OCN2C(=O)c3ccccc3C2=O)c1	4.8	4.2	-3.6	-0.6%	-0.4	1.2
CN(C)C(C)(C)C#CCCCCC#CC(C)(C)N(C)C	0.7	7.9	5.3	-5.1%[38.3 µM]	1.3	-11.6
CCS(=O)(=O)N1CCCC(C(=O)NCCc2ccccc2)C1 (configuration not stated)	-0.1	5.1	3.0	2.7%[38.3 µM]	0.2	-1.4
CC(C)(C)n1nnnc1C(c1cccs1)N1CCCc2ccccc21 (configuration not stated)	-0.6	-0.4	-3.9	1.0%	-0.5	3.8
Cc1c(CCO)c(=O)[nH]n1S(=O)(=O)c1cccc(C(F)(F)F)c1	2.6	-2.0	1.9	1.4%	0.7	-9.7
c1ccc(-c2nc3ccccc3c3nncn23)cc1	-1.9	11.2	6.4	0.2%	-0.4	-7.2
Cc1ccc(NC(=O)CSc2nnc(Cc3csc(C)n3)o2)cc1	-3.9	/	1.3	-1.3%	0.7	-10.2
COc1cc(-c2cc(NC(C)=O)c3ncc(-c4ccccc4)n3c2)cc(OC)c1OC	7.2	-7.0	-12.5	0.7%	-0.6	3.1
C=CCN(c1ccc(OC)cc1)S(=O)(=O)c1ccc(Cl)c(C(=O)OCC(=O)c2c(N)n(C)c(=O)n(C)c2=O)c1	0.7	-4.3	-12.1	-0.6%	4.1	-8.9
CC(C)C(=O)Nc1nnc(Cc2ccccc2)s1	-3.1	3.9	2.9	0.9%	-0.3	-2.8
O=C(COC(=O)/C=C/c1cccs1)NC1CC1	-4.4	0.6	-2.5	1.1%	0.3	-2.6
CCOC(=O)[C@]12CCCC=C1N(Cc1ccco1)C(=O)[C@H](CC(=O)NCC13CC4CC(CC(C4)C1)C3)C2	/	-0.3	-11.3	24.0%	-0.7	/
C=CCNC(=S)Nc1ccc(C)c(S(=O)(=O)N2CCCCC2)c1	-5.0	-4.4	2.5	-0.3%	1.2	0.2
Cc1ccc(NC(=O)c2cnn(-c3ccccc3)c2C)cc1C	3.0	-15.5	15.6	0.7%	1.5	-8.5
COc1ccc(-n2nc(C(=O)NCC(=O)NCc3ccco3)c3ccccc3c2=O)c(OC)c1	-0.6	-9.3	-0.8	-0.9%	-0.2	2.8
CC1CCN(C(=S)c2cccc(O)c2)CC1	-6.4	-0.1	-1.0	0.9%	-0.4	-4.0
COc1cc(NS(=O)(=O)c2ccc(NS(=O)(=O)c3ccccc3)cc2)nc(OC)n1	-2.7	-4.9	-4.9	0.5%	-0.7	-12.8
CCCC(c1nnnn1C1CCCCC1)N1CCN(c2ncccn2)CC1 (configuration not stated)	-2.5	5.6	-2.6	-1.8%	-0.6	-19.7
C#CCOCCOCCOCCNc1nc(N2CCOCC2)nc(N2CCN(C(=O)[C@H]([C@@H](C)CC)n3cc([C@@H](N)Cc4ccc(O)cc4)nn3)CC2)n1	1.5	-1.1	-0.1	-1.2%	0.2	-22.5
N#C/C(=C1\CCCN1)c1ccc2ccccc2n1	-5.7	-1.0	-3.5	3.1%	1.7	-7.3
CCN(CCCNS(=O)(=O)c1cc(-c2cc(C)no2)ccc1C)Cc1ccccc1	-1.5	3.1	-0.7	-1.6%	-0.1	-42.5
CC1(C(=O)Nc2cccc(Oc3ccccc3)c2)CCN1Cc1ccccc1Cl (configuration not stated)	-2.0	11.2	12.4	1.1%	0.4	-3.4
Cc1cc(C)n(-c2nc3c(c(=O)[nH]c(=O)n3C)n2Cc2cccc(Br)c2)n1	-0.1	5.3	-0.6	-1.4%	3.9	14.9
CCc1ccc(N(CC(=O)O)S(=O)(=O)c2c(C)noc2C)cc1	-0.8	0.3	8.0	0.5%	0.2	-7.0
CCOc1ccc(S(=O)(=O)N2CN3CCN(C3)C2)cc1	-2.9	8.2	-5.1	-1.1%	-0.8	-48.8
NC(=O)C1CCN(C(=O)CCn2c(=O)oc3ccccc32)CC1	4.7	/	-0.7	1.1%	3.7	-0.5
COc1ccc(S(=O)(=O)N2CCCN(CC(=O)C(C)(C)C)CC2)cc1	0.9	4.4	-1.6	-0.5%	0.9	12.1
CCOC(=O)c1cc2c(ccn2-c2ccc(F)cc2)n1CC(=O)N1CCN(C(=O)c2ccco2)CC1	0.6	5.8	2.3	5.2%	3.1	-16.1
COC(=O)Cn1cnc2scc(-c3ccc(C)c(C)c3)c2c1=O	5.7	2.9	0.1	3.7%	-0.6	-0.1
CCOc1ccc(C(O)C(CN2CCOCC2)c2ccccc2)cc1 (configuration not stated)	-0.8	-0.3	5.0	-1.0%	-0.8	-2.6
C[C@H](NC(=O)c1ncn2c1C(=O)N(C)CC2)C(=O)OC(C)(C)C	-3.5	2.4	0.3	-0.7%	0.0	-1.1
Cc1cc(OC(C)C(=O)NCCCN2CCOCC2)c2c(C)c(C)c(=O)oc2c1 (configuration not stated)	3.0	0.1	3.5	-0.3%	0.4	-10.2
CN(C)N=Nc1ccc(S(=O)(=O)NC(Cc2ccccc2)C(=O)O)cc1 (configuration not stated)	-4.4	-8.6	9.0	2.0%	-0.2	-2.4
CN(C)c1ccnc2sc3c(NCC(O)CO)ncnc3c12 (configuration not stated)	-2.0	/	-2.4	-0.1%	1.0	-2.4
O=C(O)c1ccc(/C=N/NC(=O)c2cc(-c3ccc4c5c(cccc35)CC4)n[nH]2)cc1	-0.3	-17.8	?	1.0%	0.8	-4.3
O=C(Nc1ccc(O)c(-c2nc3ccccc3o2)c1)C1(c2ccccc2)CCCC1	-4.1	20.5	12.0	6.1%[38.3 µM]	1.5	-13.3
CC1=NN(C(=O)Cc2ccccc2)C(O)(c2ccccc2)C1 (configuration not stated)	-2.5	4.3	22.4	0.7%	0.0	-1.2
C(=N\c1nc2ccccc2[nH]1)/c1cccs1	0.8	1.9	1.8	-5.0%[38.3 µM]	0.1	-4.2
Cc1nnc2sc(SCC(=O)N3CCc4ccccc43)nn2c1=O	-4.8	/	1.3	0.4%	-0.9	-12.4
CC(C)CCNC(=O)c1cc(-c2ccncc2)nc2ccc(S(=O)(=O)N3CCOCC3)cc12	3.8	4.7	21.3	6.5%	0.4	-5.6
CC(=O)c1sc(NC(=O)CCN2C(=O)c3ccccc3C2=O)nc1C	4.6	4.0	-4.7	-0.5%	0.2	-18.8
CC(=O)NCCOc1cccc(OCCNC(C)=O)c1	-2.0	45.8	23.5	-0.2%	-0.4	19.9
Cc1cc(C)nc(SCC(=O)Nc2nonc2N)n1	-3.1	1.5	4.2	1.0%	3.1	-2.9
COc1ccccc1N1CCN(CCCCN2C(=O)C3CCCN3C2=O)CC1 (configuration not stated)	1.9	-4.4	3.7	1.9%	1.1	-24.3
Cc1occc1C(=O)N/N=C/c1ccc(Br)s1	1.4	-4.1	-7.4	0.4%	-0.5	-12.9
CCOC(=O)Cn1c(=O)c2c(nc3n2CCCCN3c2ccc(C)cc2)n(C)c1=O	-0.3	-1.1	7.9	0.8%	-0.1	0.4
Cc1nc(-c2ccc(F)cc2)c(CC(=O)N(C)CC(=O)Nc2ccccc2C(F)(F)F)s1	-4.4	2.0	26.3	-1.9%	0.1	-16.7
O=C(Nc1ccc(Cl)cc1)c1csc(COCCO)n1	-1.9	1.1	2.9	2.0%	1.6	-1.5
CCOc1ccc(NC(=O)CSc2ccccc2N)cc1	-3.1	-3.1	-6.7	2.6%	-0.5	-15.3
Cc1cc(C(=O)CN2C(=O)C(=O)N(CCC3=CCCCC3)C2=O)c(C)n1C	-1.0	5.1	-18.4	0.2%	0.0	-12.0
O=C(c1cc(Br)c(Br)s1)N1CCN(c2ccccn2)CC1	6.3	3.0	-6.1	0.9%	0.7	-20.6
CC(=O)c1ccc(OCc2cc(C(=O)N(C)Cc3nc4c(C)cccc4[nH]3)no2)cc1	-0.4	3.1	-7.9	2.9%	-0.6	14.4
CCCCN(C)CCCNC(=O)c1cc(Nc2ccc(OC)c(OC)c2)nc2ccccc12	2.4	-18.8	-18.0	-0.1%	0.6	-12.5
CCC1CCC/C1=N\NC(=O)c1ccccc1Cl (configuration not stated)	-2.1	-3.0	2.9	-0.8%	-0.2	-6.3
O=C(CSc1ccccc1)Nc1ccccc1N1CCOCC1	-0.5	-1.3	9.8	-0.6%	9.4	2.8
Cc1cccc(S(=O)(=O)NC(=O)C2(C)CCN2C(=O)Cc2cccs2)c1 (configuration not stated)	-1.9	1.1	5.2	1.1%	-0.2	-4.6

Following part.
SMILES	D2 agonist	CtBP-E1A inh	Six1-Eya2 inh	PINK1 modulator	TRPML1 ag	D2 potentiator
O=C(CSCc1c(F)cccc1F)Nc1ccccc1	4.4	-4.7	-11.6	-0.6%	-0.5	-1.0
CCc1ccccc1NC(=O)Cn1nc(C(F)(F)F)cc1C1CC1	-2.0	2.6	5.8	7.3%[38.3 µM]	0.8	1.7
COC(=O)c1cc(OC)c(OC)cc1N	-1.3	-2.4	4.1	1.6%	0.9	5.9
CC(=O)c1c(C)[nH]c(C(=O)OCC(=O)Nc2ccc([N+](=O)[O-])cc2Cl)c1C	-0.7	3.0	0.3	14.6%	0.4	4.8
COc1ccc(C2=NCCn3c2c2ccc(C(F)(F)F)cc2[n+]3[O-])cc1	1.1	-16.2	-0.7	-1.5%	-0.4	-4.9
Clc1ccc(C2=CSC3=NCCN23)cc1Cl	-0.2	5.3	-14.8	-2.0%	0.5	-1.0
Cc1occc1C(=O)NNC(=O)CN1C(=O)NC2(CCCCC2)C1=O	-4.0	14.3	2.8	1.5%	-0.1	13.0
Cc1ccc(C(=O)Nc2nc(-c3ccc([N+](=O)[O-])cc3)cs2)o1	-1.8	3.2	1.2	-1.2%	-0.6	16.0
Cc1ccccc1N(CC(=O)NC(C)(C)C)C(=O)CS(=O)CC(=O)Nc1ccc2c(c1)OCO2 (configuration not stated)	-3.5	-0.3	-3.0	0.4%	-0.3	-7.0

Record cards (already shown). Values in the order: D2 agonist, CtBP-E1A inh, Six1-Eya2 inh, PINK1 modulator, TRPML1 ag, D2 potentiator
Listed for COC(=O)c1cc(OC)c(OC)cc1N → -1.3, -2.4, 4.1, 1.6%, 0.9, 5.9
Listed for O=C(CSCc1c(F)cccc1F)Nc1ccccc1 → 4.4, -4.7, -11.6, -0.6%, -0.5, -1.0
Listed for Cc1ccccc1N(CC(=O)NC(C)(C)C)C(=O)CS(=O)CC(=O)Nc1ccc2c(c1)OCO2 (configuration not stated) → -3.5, -0.3, -3.0, 0.4%, -0.3, -7.0

Screening results: PubChem BioAssay, National Center for Advancing Translational Sciences (NCATS)
